LANA-H2B inh: blockers of LANA interaction with H2A/H2B – biochemical, FP readout, HTS, primary screen. Protein LANA1 (Human herpesvirus 8 type P (isolate GK18)), Q9QR71. cell-free LANA-H2A/H2B peptide, fluorescence polarization. inhibition, % (test concentration not listed). hit rate 0.6% among 320,000. AID 2629, 2010; in the data active = inhibition mostly above about 10%, no sharp cut-off; inactive = mostly below about 6.7%;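 note: stock transfer was 7.5 nL into about 10 µL; 0% = median of vehicle wells and 100% = median of positive control wells; one replicate is shown; the record names a cut of 25% in any replicate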
Target sequence (Q9QR71 whole entry, looked up): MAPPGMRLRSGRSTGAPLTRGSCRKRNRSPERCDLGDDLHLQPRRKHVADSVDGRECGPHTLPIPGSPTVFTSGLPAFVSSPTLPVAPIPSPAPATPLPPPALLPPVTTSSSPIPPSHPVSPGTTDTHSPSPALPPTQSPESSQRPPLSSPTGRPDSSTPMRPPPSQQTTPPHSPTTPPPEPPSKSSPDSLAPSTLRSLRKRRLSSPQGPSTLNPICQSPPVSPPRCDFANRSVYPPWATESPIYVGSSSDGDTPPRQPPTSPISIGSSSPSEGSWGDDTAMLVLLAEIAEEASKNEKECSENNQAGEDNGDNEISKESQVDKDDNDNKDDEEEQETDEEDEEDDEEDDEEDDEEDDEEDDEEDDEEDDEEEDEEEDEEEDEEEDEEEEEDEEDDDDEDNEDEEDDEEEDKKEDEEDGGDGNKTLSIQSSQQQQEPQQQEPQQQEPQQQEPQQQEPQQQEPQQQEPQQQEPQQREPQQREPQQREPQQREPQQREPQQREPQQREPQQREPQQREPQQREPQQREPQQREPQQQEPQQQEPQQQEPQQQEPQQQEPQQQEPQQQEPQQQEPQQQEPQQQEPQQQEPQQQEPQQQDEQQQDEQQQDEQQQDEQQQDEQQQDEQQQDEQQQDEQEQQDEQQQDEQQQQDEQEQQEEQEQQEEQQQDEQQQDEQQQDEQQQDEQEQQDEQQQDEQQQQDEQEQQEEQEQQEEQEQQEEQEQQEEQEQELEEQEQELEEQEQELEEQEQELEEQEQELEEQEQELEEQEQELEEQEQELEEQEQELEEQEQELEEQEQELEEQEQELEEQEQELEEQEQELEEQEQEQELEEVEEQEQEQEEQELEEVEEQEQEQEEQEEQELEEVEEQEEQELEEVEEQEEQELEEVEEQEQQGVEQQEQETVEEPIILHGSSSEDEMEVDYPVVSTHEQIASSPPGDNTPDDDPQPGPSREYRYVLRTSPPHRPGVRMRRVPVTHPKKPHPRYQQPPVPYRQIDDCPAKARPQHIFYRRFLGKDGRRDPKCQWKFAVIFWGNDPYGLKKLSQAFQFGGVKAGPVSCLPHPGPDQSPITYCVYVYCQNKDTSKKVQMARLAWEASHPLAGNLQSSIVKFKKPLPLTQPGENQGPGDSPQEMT
ALR inh: inhibitors of human ALR sulfhydryl oxidase, primary screen, biochemical, H2O2 detection, HRP-luminol luminescence, single point; inhibition, % (no concentration beside the values); AID 485317, 2010; purified ALR, DTT oxidation; hit rate 3.8% among 290,000;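 active = mean and each replicate at 75% or more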;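 note: stock transfer was 7.5 nL into about 7.5 µL; 0% = neutral wells and 100% = wells with inactivated enzyme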
Beta2AR agonist: beta2AR agonists driving receptor internalization, primary screen, cell-based, FAP fluorogen, flow cytometry | response, % (no concentration beside the values) | hit rate 0.43% among 340,000 | AID 504454, 2011 | Am2.2-beta2AR cells; reference of the scale not given here | Beta-2 adrenergic receptor (Homo sapiens), P07550;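 active = response above a set limit, near 3 SD of response in nonfluorescent compounds, cut at about 42% in these data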;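 note: stock transfer was 100 nL into about 11 µL; a reference agonist was the positive control; negative values mostly stem from fluorescent compounds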
Calb FLC: C. albicans growth inhibition with fluconazole, primary screen, CaCi-2 strain, Alamar Blue fluorescence; hit rate 0.57% among 300,000; growth inhibition, % (concentration not given with the values); C. albicans CaCi-2 (fluconazole-resistant clinical isolate) + fluconazole, 48 h;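 active = most replicates above 75%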;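 note: all wells also contain fluconazole at 8 µg/ml as a sub-toxic cotreatment; 0% = median of DMSO wells and 100% = median of geldanamycin control wells; wells of about 8 µL received 7.5 nL stock; the first replicate is given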
Beta cell apopt: inhibitors of cytokine-induced beta cell apoptosis, primary screen, luminescence; INS-1E cytokine-induced death, ATP luminescence, 48 h; percent of positive-control rescue, neutral wells zero; protection from apoptosis, % (test concentration not listed); hit rate 0.8% among 300,000;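 active = all replicates at 75% or more, or half of them and the mean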;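 note: 0% = cytokine-treated negative control wells and 100% = positive control rescue; higher means more ATP so stronger rescue from cytokine killing; wells of about 40 µL received 100 nL stock; the first replicate is given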
T cruzi repl: inhibitors of intracellular T. cruzi growth, primary screen, luminescence, NIH3T3 host cells; T. cruzi beta-gal in NIH3T3, 90 h; hit rate 1.4% among 300,000; AID 1885, 2009; inhibition, % (test concentration not listed);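 active = mean inhibition across valid replicates above about 55%, limit read from the data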;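 note: signal also drops with host cell toxicity which is not excluded here; 0% = plate median of DMSO wells and 100% = zero luminescence signal; higher percent means less beta-gal luminescence so fewer parasites; stock transfer was 50 nL into about 50 µL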
A1 inh: caspase 3/7 activation in MEF A1-2A-BIM cells, primary screen, A1 inhibitor project, cell-based, luminescence, HTS; hit rate 0.066% among 330,000; caspase activation, % (test concentration not listed); AID 2462, 2010; Caspase-Glo 3/7 luminescence, 3 h; percent of clofoctol response, vehicle zero;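 active = over half of replicate activation scores above 10%, or exactly half above 10 with the replicate mean above 10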;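 note: wells of about 30 µL received 50 nL stock; many hits fall short of the cut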
Ecoli rRNA inh: reduced GFP signal of wild-type E. coli, primary screen, bacterial rRNA inhibitor project, GFP/RFP fluorescence, OD600, single point; AID 720706, 2013; E. coli WT GFP vs humanized-ribosome RFP mutants, 24 h; active compounds read low; DMSO median 0, no signal -100; GFP signal change (wild-type ribosome), % (no concentration beside the values); hit rate 1.6% among 350,000;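 active = significant combined selectivity score with lowered wild-type GFP, culture density cut under 30%, mutant RFP and density less affected; inactive = any of these conditions unmet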; note: one replicate is shown; some compounds called inactive have numbers as strong as hits
Ecoli rRNA inh OD600: second read-out of Ecoli rRNA inh, no call of its own (marks repeat the call); OD600 change, %; measured here: OD600 growth;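 optical density of the mix in the first replicate; 0 = DMSO median and -100 = no signal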
Ecoli rRNA inh RFP: also measured in Ecoli rRNA inh; calls as there; RFP signal change, %; measured here: RFP humanized mutant strains;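 first replicate; 0 = DMSO median and -100 = no signal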
Numbers without * were called inactive; x = no result given. Only part of the results is shown; count on the stated rates, not on these rows.

SMILES	LANA-H2B inh	ALR inh	Beta2AR agonist	Calb FLC	Beta cell apopt	T cruzi repl	A1 inh	Ecoli rRNA inh	Ecoli rRNA inh OD600	Ecoli rRNA inh RFP
CCOC(=O)C(C(=O)Nc1ccccc1)C1CCCCC1 (configuration not stated)	-2.1	-2.7	22.5	-10.8	0.1	3.1	0.1	x	x	x
Cc1ccc(SCc2nc(N)nc(Nc3ccccc3C)n2)c(C)c1	63.8*	-5.5	-13.4	-2.7	-2.6	23.4	-1.5	-37.5	-57.5	9.0
COc1ccc(/C=N/Nc2ncc(C(F)(F)F)cc2Cl)c(OC)c1OC	2.2	0.5	-12.0	-4.6	12.2	-0.1	0.0	x	x	x
COc1ccc(C2(c3ccc(OC)cc3)NC(=O)NC2=O)cc1	-1.1	-24.4	0.5	-4.0	5.8	4.7	-0.5	6.3	11.3	2.5
CC(=O)Oc1ccccc1C1OCCN1C(C)=O (configuration not stated)	3.6	-12.5	-10.3	-4.2	-1.6	-4.7	-0.3	x	x	x
COc1cc2c(cc1Cl)/C(=C\CCN(C)C)c1ccccc1S2	3.4	-42.7	23.5	-37.9	8.1	46.4	0.3	x	x	x
COC(=O)CCC(=O)Nc1ccc(OC)cc1	1.8	-1.0	0.6	-11.4	x	-23.1	-0.9	x	x	x
CSc1ccc(-c2c(C#N)c(N)nc3c2c(C)nn3-c2ccccc2)cc1	-0.6	x	24.5	2.8	8.7	37.0	-1.2	x	x	x
COC(=O)c1ccc(CNC(=O)/C=C/c2cc([N+](=O)[O-])ccc2OC(F)F)cc1	0.0	-6.5	-2.0	4.5	-8.2	3.4	0.1	x	x	x
COC(=O)c1ccc2nc(-c3ccc(S(C)(=O)=O)cc3)cn2c1	-2.5	1.4	-0.1	-32.9	1.7	-5.0	-4.6	21.8	19.6	-2.4
O=C(CCC(=O)n1ncc2ccccc21)N1CCCCC1	-3.3	-0.6	-7.0	7.6	5.5	-7.2	-0.3	-4.8	-3.5	-3.0
Cc1ccccc1NS(=O)(=O)c1cc2c3c(c1)CC(=O)N3CCC2	2.5	8.3	5.4	-27.6	-6.5	2.1	-0.6	11.2	-2.0	8.8
[2H]c1c([2H])c([2H])c(C(=O)c2sc(N3CCCCCC3)nc2-c2ccccc2)c([2H])c1[2H]	-6.0	-8.0	-3.5	-17.0	-8.0	18.8	-0.4	x	x	x
O=C(NC1CC1)c1ccc(-c2nc3ccccc3s2)s1	-5.4	x	x	-1.3	12.6	-4.2	-13.5	x	x	x
CSc1nc(Oc2ccccc2)c2sccc2n1	-1.0	-5.0	-4.8	-4.0	-8.3	22.1	0.5	x	x	x
CC1=NN(C(N)=S)C(=O)C1N=Nc1c(Cl)cc([N+](=O)[O-])cc1Cl (configuration not stated)	-1.3	26.1	-14.8	5.0	x	-3.1	-8.5	-26.1*	-20.0*	-5.9*
CCc1ccc(S(=O)(=O)Nc2c(NC3CCCCC3)c3ccccc3oc2=O)cc1	x	39.0	6.6	-1.9	x	9.0	x	x	x	x
CCC(=O)Nc1nnc(CCc2ccccc2)s1	-0.6	-3.0	-0.8	-7.4	-1.6	6.1	0.2	x	x	x
CC12CCC(=O)N1C(C(=O)NCc1ccccc1F)CS2 (configuration not stated)	x	x	0.1	-10.5	-1.1	-2.1	-0.2	12.5	15.1	-2.6
COc1cc(OC)cc(C(=O)Nc2ccc(S(=O)(=O)Nc3nc(C)cc(C)n3)cc2)c1	-5.2	-3.7	-4.6	17.2	2.4	0.1	-0.6	-5.2	-14.4	-2.8
O=C(NCCN1CCN(c2cccc(Cl)c2)CC1)Nc1ccccc1	3.8	52.5	-10.2	-13.6	-3.8	-2.8	-0.4	-14.6	-5.4	1.9
CC(=O)N1CC[n+]2c(-c3ccc([N+](=O)[O-])cc3)csc21	-2.6	48.5	9.3	-0.1	-3.5	x	-0.8	-2.4	-1.1	-4.3
CC1Cc2ccccc2N1C(=O)CSc1nccc(=O)[nH]1 (configuration not stated)	6.0	-2.8	2.0	-2.2	-4.0	-0.5	0.8	7.8	5.0	-0.6
Cc1cc(C)c(C(=O)NC2CC(C)(C)Cc3c2cnn3-c2ccccc2)o1 (configuration not stated)	1.4	87.1*	2.7	-4.0	9.5	3.4	0.3	-13.4	-5.2	-2.2
CCOc1ccc2ccccc2c1CNCCc1ccc(S(N)(=O)=O)cc1	7.3	-7.3	7.5	-4.5	x	-22.5	0.7	-7.5	0.8	-1.0
Cc1cc(NC(=O)c2sccc2C)n(-c2nc3ccccc3[nH]2)n1	-4.0	-6.7	-1.5	22.4	x	39.0	-0.1	4.1	20.4	4.5
Cc1ccc(-c2csc(N3CCN(c4cc5c(cc4Cl)nc(-c4ccncc4)n5CCN4CCCCC4)CC3)n2)cc1	0.2	-25.0	36.0	27.6	-4.0	29.9	-1.9	-2.6	5.3	-5.3
COc1ccc(CC(NC(C)=O)C(=O)NC2CCN(C(=O)NCc3ccccc3)CC2)cc1 (configuration not stated)	0.7	x	-5.5	4.5	-6.0	-16.8	0.3	12.1	8.2	-8.4
COc1ccc2nc(NCc3ccccc3)[nH]c2c1	2.4	94.8*	-15.9	-31.8	-1.3	7.2	-0.8	x	x	x

In the list so far, 5 contain a Cl atom:
SMILES	LANA-H2B inh	ALR inh	Beta2AR agonist	Calb FLC	Beta cell apopt	T cruzi repl	A1 inh	Ecoli rRNA inh	Ecoli rRNA inh OD600	Ecoli rRNA inh RFP
COc1ccc(/C=N/Nc2ncc(C(F)(F)F)cc2Cl)c(OC)c1OC	2.2	0.5	-12.0	-4.6	12.2	-0.1	0.0	x	x	x
COc1cc2c(cc1Cl)/C(=C\CCN(C)C)c1ccccc1S2	3.4	-42.7	23.5	-37.9	8.1	46.4	0.3	x	x	x
CC1=NN(C(N)=S)C(=O)C1N=Nc1c(Cl)cc([N+](=O)[O-])cc1Cl (configuration not stated)	-1.3	26.1	-14.8	5.0	x	-3.1	-8.5	-26.1*	-20.0*	-5.9*
O=C(NCCN1CCN(c2cccc(Cl)c2)CC1)Nc1ccccc1	3.8	52.5	-10.2	-13.6	-3.8	-2.8	-0.4	-14.6	-5.4	1.9
Cc1ccc(-c2csc(N3CCN(c4cc5c(cc4Cl)nc(-c4ccncc4)n5CCN4CCCCC4)CC3)n2)cc1	0.2	-25.0	36.0	27.6	-4.0	29.9	-1.9	-2.6	5.3	-5.3
